# PV pol inh – inhibitors of poliovirus RNA polymerase binding and polymerization; poliovirus polymerase elongation, fluorescence polarization; stronger effect = lower value; % elongation, % (compound at 16.7 µg/mL); 0.66% of 150,000 active; AID 588519; in the data active means % elongation below about 90%; further: some results filed as inactive read as strong as hits
# Target sequence (P03300 1749-2209 limits assumed): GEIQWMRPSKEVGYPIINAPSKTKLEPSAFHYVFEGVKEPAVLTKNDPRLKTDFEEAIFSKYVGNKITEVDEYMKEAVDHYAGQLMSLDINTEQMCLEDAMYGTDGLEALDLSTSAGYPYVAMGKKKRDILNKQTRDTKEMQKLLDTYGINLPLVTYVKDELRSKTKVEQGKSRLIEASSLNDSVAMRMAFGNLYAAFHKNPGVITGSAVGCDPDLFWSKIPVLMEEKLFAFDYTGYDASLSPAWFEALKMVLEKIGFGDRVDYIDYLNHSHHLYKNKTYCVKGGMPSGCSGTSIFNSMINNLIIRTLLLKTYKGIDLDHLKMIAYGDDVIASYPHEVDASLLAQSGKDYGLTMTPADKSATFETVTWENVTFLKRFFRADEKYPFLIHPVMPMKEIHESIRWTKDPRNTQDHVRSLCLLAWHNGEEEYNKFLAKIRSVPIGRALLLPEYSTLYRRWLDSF
# MbtI inh – MbtI salicylate synthase inhibition | P9WFX0 | purified MbtI enzyme, fluorescence intensity read-out | inhibition, %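 (about 17 µg/mL by stock and volumes)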 | 0.89% of 100,000 active;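 active means above 50% in both replicates, above 80% if mildly self-fluorescent; inactive means the rest, strongly fluorescent compounds included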;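 further: 0% = mean of negative and 100% = mean of positive controls; one replicate is shown; some compounds called inactive have numbers as strong as hits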
# MenB inh – blocks the Mycobacterium tuberculosis MenB enzyme. MenB enzyme assay, absorbance read-out; some hits fall short of the stated cut. P9WNP5. 0.43% of 100,000 active. inhibition, %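 (about 12 µg/mL by stock and volumes)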. AID 540299;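 active means mean of two replicates above 30%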;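 further: 0% = no compound and 100% = wells with inactive enzyme; the first replicate is given; strong numbers were not always called active; inactives centre near -10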
# Target sequence (P9WNP5 whole entry, looked up): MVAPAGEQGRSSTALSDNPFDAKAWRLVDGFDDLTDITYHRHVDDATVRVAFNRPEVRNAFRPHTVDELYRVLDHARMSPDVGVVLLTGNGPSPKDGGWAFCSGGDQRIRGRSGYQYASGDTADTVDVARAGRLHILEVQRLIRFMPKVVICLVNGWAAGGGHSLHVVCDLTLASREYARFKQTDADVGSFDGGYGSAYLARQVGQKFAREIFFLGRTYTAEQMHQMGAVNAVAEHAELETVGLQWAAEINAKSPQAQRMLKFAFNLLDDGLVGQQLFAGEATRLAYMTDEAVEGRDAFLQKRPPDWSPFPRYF
# PV pol inh intensity – also measured in PV pol inh; calls as there; % elongation; measured here: total intensity read-out; formula for this scale not given here;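 total fluorescence in place of polarization; lower means less elongation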
# Numbers without * were called inactive; . = not tested or not shown; & = joins results of further samples.
SMILES,PV pol inh,PV pol inh intensity,MbtI inh,MenB inh
N#Cc1c(C(F)(F)F)nc(=O)n2ccccc12,92,104,107,2
CCC(CO)NC(=O)c1cn(-c2ccccc2)nc1-c1ccc(Cl)cc1 (stereo not given),104,105,-33,.
Cc1cc(OCC(=O)NCc2ccco2)c(C)cc1Br,104,102,22,-23
O=S1(=O)N=C(N2CCc3ccccc3C2)c2ccccc21,104,112,-4,-15
N#Cc1ccc(Oc2ccccc2)cc1S(=O)Cc1ccccc1 (stereo not given),103,108,.,-8
CNS(=O)(=O)c1cccc(C(=O)OCC(=O)C(C)(C)C)c1,99,97,-9,-19
COC(=O)c1c(C)nc(C)c(C(=O)OC)c1-c1csc(S(=O)(=O)Nc2ccc(OC)cc2)c1,111,114,-5,-8
CCCC1=C(C(=O)OCC)C(c2cccnc2)n2ncnc2N1 (stereo not given),104,103,0,-31
COC(CNC(=S)Nc1ccccc1Cl)OC,102,111,-13,2
O=C(Nc1n[nH]c(=S)s1)c1ccccc1,100,101,82,-42
Cc1nc(C2CCOC(C)(C)C2)cs1 (stereo not given),99,102,-5,-6
CC/C=C\C/C=C\C/C=C\C/C=C\C/C=C\CCCCCC(=O)O,100&102,99&98,9,15
COC(Cn1c(SCc2ccccc2)nnc1-c1cccc(S(=O)(=O)N(C)C)c1)OC,101,97,-5,-15
N#CCn1c(-c2cccs2)noc1=O,102,102,-3,3
CCOC(=O)c1cc(CC)sc1NC(=O)C(C)C,98,102,-14,-2
CC(=O)Nc1ccc(N2C(=O)CC(N3CCCCC3C)C2=O)cc1 (stereo not given),101,105,22,24
CC1(C)C(=O)Nc2ccccc2N1C(=O)COC(=O)COc1ccccc1,105,112,0,-27
Cc1ccccc1Nc1nnc(SC(C)C(=O)N(C)c2ccccc2)s1 (stereo not given),106,105,4,-12
COC(=O)C1=C(N)Oc2cc(C)n(Cc3ccccc3)c(=O)c2C1c1ccncc1 (stereo not given),101,105,-2,-8
Cc1ccc(S(=O)(=O)N(C)CC(=O)Nc2ccc(S(N)(=O)=O)cc2)cc1,102,104,-10,-13
O=C(CCn1nnc(-c2cccs2)n1)NC1CCCCC1,99,99,1,25
CCC(CC)NC(=O)c1cc2c(C)nn(Cc3ccccc3Cl)c2s1,103,105,2,-7
NC(=O)C1CCCCN1Cc1cc(Cl)c2ccccc2c1O (stereo not given),98,98,9,-8
NS(=O)(=O)c1cc(C(=O)OCC(=O)N2CCCCC2)c(Cl)cc1Cl,99,102,1,-5

# Single records (already shown). Order of screens: PV pol inh, PV pol inh intensity, MbtI inh, MenB inh
# CC1(C)C(=O)Nc2ccccc2N1C(=O)COC(=O)COc1ccccc1 in the list: 105, 112, 0, -27
# COC(Cn1c(SCc2ccccc2)nnc1-c1cccc(S(=O)(=O)N(C)C)c1)OC in the list: 101, 97, -5, -15
# Cc1ccccc1Nc1nnc(SC(C)C(=O)N(C)c2ccccc2)s1 (stereo not given) in the list: 106, 105, 4, -12
# O=C(CCn1nnc(-c2cccs2)n1)NC1CCCCC1 in the list: 99, 99, 1, 25

# Other entries:
SMILES,PV pol inh,PV pol inh intensity,MbtI inh,MenB inh
CC1=CCC2C(=O)N(c3ccccn3)C(=O)C2C1 (stereo not given),103,104,5,-16
FC(F)(F)c1cnc2c(c1)Nc1ccccc1S2,101,102,-17,.
CCc1cc2cc(C)cc(C)c2nc1SCC(=O)N1CCN(C(=O)c2ccco2)CC1,102,102,3,12
COC(=O)c1cc(-c2ccccc2C(F)(F)F)no1,103,101,.,-11
CC/C(=N/NC(=O)C1C2CCCCC21)c1ccc(O)cc1 (stereo not given),101,102,-19,-12
O=C(O)CCN1CCCc2ccccc21,101,98,.,1
O=C(Nc1cccc(Br)c1)C1CCC1,103,109,1,-8
CC(CCc1ccc(O)cc1)NCCc1ccc(O)c(O)c1 (stereo not given),102,102,-18,5
Cc1ccc(C(=O)c2cnc3cc4c(cc3c2N2CCN(C)CC2)OCO4)cc1C,104,104,0,-18
O=C1/C(=C\c2ccc(Br)o2)CC/C1=C/c1ccc(Br)o1,43*,50*,42,-38
C=CCn1c(C)cc(C(=O)CSc2nnc(-c3ccccc3)n2CC)c1C,106,114,-42,-15
O=C(c1ccc2c(c1)sc1nc(-c3ccc(F)cc3)cn12)N1CCOCC1,101,102,-17,-5

# Fetched by structure from the entries so far (7):
SMILES,PV pol inh,PV pol inh intensity,MbtI inh,MenB inh
O=C(CCn1nnc(-c2cccs2)n1)NC1CCCCC1,99,99,1,25
COC(=O)c1c(C)nc(C)c(C(=O)OC)c1-c1csc(S(=O)(=O)Nc2ccc(OC)cc2)c1,111,114,-5,-8
CC(CCc1ccc(O)cc1)NCCc1ccc(O)c(O)c1 (stereo not given),102,102,-18,5
NC(=O)C1CCCCN1Cc1cc(Cl)c2ccccc2c1O (stereo not given),98,98,9,-8
O=C(O)CCN1CCCc2ccccc21,101,98,.,1
CCOC(=O)c1cc(CC)sc1NC(=O)C(C)C,98,102,-14,-2
Cc1ccccc1Nc1nnc(SC(C)C(=O)N(C)c2ccccc2)s1 (stereo not given),106,105,4,-12

# (next part)
SMILES,PV pol inh,PV pol inh intensity,MbtI inh,MenB inh
CCOC(=O)c1ncn(Cc2ccccc2)c1N,103,97,-7,2
NC(=O)c1ccc[n+]([O-])c1,103,99,4,-31
COc1ccc(C2C3CCC=C3C(C#N)=C(N)C2(C#N)C#N)cc1 (stereo not given),100,122,.,-10
O=S(=O)(Nc1ncccn1)c1ccc(NC(=S)NN2CCOCC2)cc1,100,101,-9,3
Cc1ccc2c(c1)N(CC(=O)NC1CCCCC1C)C(=O)CO2 (stereo not given),103,103,4,-18
O=C(CCC(=O)N1CCOc2ccccc21)N1CCCCC1,104,109,-7,-13
COc1ccc(CNCCN(C)C)cc1OC,104,103,6,14
CCOC(=O)c1c(-c2ccccc2)c2cc(Cl)ccc2[nH]c1=O,102,99,-2,-19
COc1ccc(C)cc1Nc1nnc(C)c(=O)[nH]1,99,102,-1,0
Cc1ccc(S(=O)(=O)N2CCOCC2)cc1C(=O)OCc1nc2ccc(Cl)cc2n1CCO,107,114,-10,-17
Cc1cc(C)c(C#N)c(SCCN2CCCCC2)n1,100,113,.,4
CC(C)(C)OC(=O)N1CC=C2C(C1)C(c1cccc(F)c1)C(C#N)=C(N)C2(C#N)C#N (stereo not given),111,122,-11,-11
CCCn1nc(C(=O)N(C)Cc2cccs2)c2ccccc2c1=O,110,117,-9,2
O=C(N1CCCCC1)N1CCN(S(=O)(=O)N2CCCCC2)CC1,107,101,-8,-17
Cc1nc2ccc(Cl)cc2c(-c2ccccc2)c1C(=O)N1CCOCC1,101,96,0,.
CN(C)c1ccc(C(=O)NCc2ccc3c(c2)CCO3)cc1,101,96,-5,17
CNC(=O)COC(=O)c1ccccc1Oc1ccccc1,102,96,-2,.
O=C(CSc1c2c(nc3ccccc13)CCCC2)NCc1ccco1,101,105,2,-29
Cc1nn(-c2ccc(F)cc2)c(Cl)c1C(=O)OCC#N,102,104,-2,-13
Nc1ccc(S(=O)(=O)N2CCCC2)cc1Cl,100,105,-2,.
CC1(C)S[C@@H]2[C@H](NC(=O)[C@H](C(=O)O)c3ccsc3)C(=O)N2[C@H]1C(=O)O,99,101,-5,0
Cc1cc(C)n(CC(=O)Nc2ccccc2C)c(=O)n1,101,103,9,10
Cc1ccnc(NC(=O)CCSc2ccccc2)c1,102,102,-1,-15
CCOc1ccc(NC(=O)CSc2nc(=O)n(Cc3ccco3)c3c2CCCC3)cc1,106,109,6,-26

# 5 compounds out of the list, sorted by molar mass, lowest first.
SMILES,PV pol inh,PV pol inh intensity,MbtI inh,MenB inh
Nc1ccc(S(=O)(=O)N2CCCC2)cc1Cl,100,105,-2,.
Cc1cc(C)n(CC(=O)Nc2ccccc2C)c(=O)n1,101,103,9,10
O=C(N1CCCCC1)N1CCN(S(=O)(=O)N2CCCCC2)CC1,107,101,-8,-17
O=C(CSc1c2c(nc3ccccc13)CCCC2)NCc1ccco1,101,105,2,-29
CC1(C)S[C@@H]2[C@H](NC(=O)[C@H](C(=O)O)c3ccsc3)C(=O)N2[C@H]1C(=O)O,99,101,-5,0

# (further entries)
SMILES,PV pol inh,PV pol inh intensity,MbtI inh,MenB inh
CN(C)C(=O)CN(C#N)c1nc(Cl)nc(N(C)C)n1,102,102,-1,-37
O=C(CN(C1CCCCC1)S(=O)(=O)c1ccc(F)cc1)NCC1CCCO1 (stereo not given),105,102,.,0
CCCCc1nnc(NC(=O)CCN2C(=O)/C(=C\c3ccco3)SC2=S)s1,101,104,4,-2
O=C1NC2(CCCCC2)C(=O)N1Cc1nnc(-c2ccccc2)o1,108,122,-10,2
O=C(CCCn1c(=O)oc2ccccc21)N1CCc2ccccc2C1,102,106,6,10
N#CNC1=NC(c2ccccc2)C2=C(N1)/C(=C\c1ccccc1)CCC2 (stereo not given),101,102,-44,-13
CC(=O)N1CCOc2cc(S(=O)(=O)NCCc3cccc(C)c3)ccc21,104,108,-13,-12
COc1ccc(C2=NN(C(=O)CNc3cccc4ccccc34)C(c3ccco3)C2)cc1 (stereo not given),103,105,-8,-4
CCn1c2ccccc2c2cc(P(=S)(OC)OC)ccc21,81*,86*,105,-82
Cc1ncc(C[n+]2csc(CCO)c2C)c(N)n1,102&102,107&97,-14,1&-2
CCCN1C(=O)/C(=C/c2cc(Br)c(O)c(OCC)c2)NC1=S,73,197,8,-22
COc1ccc2oc(C)c(C(=O)CSc3ccccc3)c2c1,104,106,-4,-29
CCOC(=O)c1cnc2c(ccc3ccccc32)c1NCC(C)C,103,102,53,-21
Brc1cccc(-c2nnc(CN3CCc4ccccc4C3)o2)c1,101,104,-9,-17
CCCCNC(=O)c1ccc2[nH]c(C)c(C)c2c1,98,103,-94,4
CCOC(=O)c1sc(NC(=O)c2cccs2)cc1C,104,101,102,5
CC(SCc1n[nH]c(=O)[nH]1)C(=O)Nc1nccs1 (stereo not given),100,100,-3,2
Cc1cc(N2CCCC2)nc2ccc(NC(=S)NC(C)C)cc12,99,101,-80,-15
Cc1cc(C)n(-c2nnc(C)n2NS(=O)(=O)c2ccc(F)cc2)n1,102,103,0,9
Cc1ccc2nc(C)c(CN3CCN(C(=O)/C=C/c4ccc(C#N)cc4)CC3)n2c1,101,105,10,-25
O=C(COc1ccccc1)NCc1cccs1,103,102,-3,.
COc1ccc(C(NC(C)=O)c2ccc3cccnc3c2O)cc1 (stereo not given),99,103,42,-86
Cc1ccc(C(=O)NCC(=O)OCc2c(F)cccc2Cl)s1,104,106,-10,.
CC1(C)C(c2ccccc2)=[N+]([O-])C2(CCCCC2=O)N1O (stereo not given),103,100,-3,-22
O=C(NCCN1CCOCC1)c1cccc2c1OCCCO2,98,98,-10,4
Cc1cc(C)cc(OCC(=O)NCCN2CCOCC2)c1,103,103,2,-5
CSc1nn(-c2ccccc2)cc1-c1nc(-c2ccccc2)cs1,102,105,83,-26
CCOC(=O)C1=NN(c2ccccc2)C(=O)C12CC(C)=C(C)CS2 (stereo not given),105,104,8,-12
O=C(NC1CCCCCC1)c1cc2ccccc2c(=O)[nH]1,103,109,-4,-16
COCCNC(=O)c1cc(-c2ccncc2)nc2ccc(S(=O)(=O)N3CCOCC3)cc12,99,102,-4,-5
CC1(C)CC(=O)C(C=NCc2ccc(F)cc2)=C(O)C1,104,105,-4,-20
C/C(=N\OCC(=O)O)c1ccc(Br)s1,105,101,0,-4
CSc1ccccc1NC(=O)CN1CCCC1,102,96,2,-6
O=C(Cn1c(=S)[nH]c2ccccc21)c1ccc(-c2ccccc2)cc1,103,97,.,-13

# High-throughput results as filed in PubChem BioAssay.

# No enrichment for hits; overall some 1.9% were active at least once.
